# Bioassay records deposited in PubChem by several laboratories.
# Sa RN4220 lethal – growth inhibition of S. aureus RN4220, primary screen, OD600 | 16 h | inhibition, % (concentration not given with the values) | hit rate 0.33% among 330,000 | AID 1259311, 2017;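 active = z-score of -3 or lower and OD600 up to 0.18 on both plates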;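 also: plate controls were untreated cells for no effect and reference antibiotic for full effect; stock transfer was 100 nL into about 80 µL; one replicate is shown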
# ugtP null kill – growth inhibition of ugtP-null S. aureus, primary screen, RN4220 ugtP deletion, OD600 | 16 h; some inactives read as strong as hits | growth inhibition, % (concentration not given with the values) | hit rate 0.54% among 330,000 | AID 1259309, 2017;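 active = z-score under -3 and OD600 up to 0.15 on both plates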;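 also: plate controls were untreated wells for no effect and antibiotic for full effect; wells of about 80 µL received 100 nL stock; the first replicate is given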
# Mtb hypoxia rep – PubChem AID 1159583. hit rate 0.1% among 300,000. fluorescence inhibition, % (test concentration not listed). M. tuberculosis hypoxia-regulated fluorescent reporter, fluorescence;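 active = 35 to 45% if threefold the growth effect, above 45% if 1.5-fold the growth effect; inactive = the rest, general growth blockers included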;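 also: wells of about 50 µL received 100 nL stock; 0% = vehicle wells and 100% = reference inhibitor wells; whole bacteria with a GFP reporter of the hypoxia response; strong numbers were not always called active; many hits fall short of the cut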
# PrP 5UTR inh – inhibition of PrP 5' UTR reporter expression; cell-based PrP 5' UTR mRNA reporter, plate reader; inhibition, % (concentration not given with the values); hit rate 0.35% among 340,000;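 active = every replicate at 50% or more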;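 also: 0 = median of the neutral control wells; tested in H4 reporter cells; numbers are from one replicate; inactives centre near -14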
# Autofluor counter – counter-screen for toxin protease inhibitors: compound fluorescence. hit rate 3.1% among 360,000. compound autofluorescence counterscreen, microsphere flow cytometry; active compounds read high. fluorescence intensity (test concentration not listed);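 active = at least 3 SD above the mean of all compounds, about 16000 in these data; inconclusive = too few beads counted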;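 also: 100 nL of 1 mM stock went into each well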
# BJeLR viability – MLPCN primary cell-based screen for lethality selective to Ras in HRASV12 cells. BJeLR (HRASV12) viability, CellTiter-Glo ATP luminescence, 48 h; reference of the scale not given here. inhibition, % (test concentration not listed). hit rate 0.17% among 300,000. AID 1554, 2009;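 active = replicate mean above 50%; inconclusive = above 50% but judged a plate artefact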;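 also: 50 nL library stock added to about 25 µL; numbers are from one replicate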
# Mtb hypoxia rep growth – further read-out of Mtb hypoxia rep, marked with its call; growth inhibition, %; measured here: M. tuberculosis growth (absorbance);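 0% = vehicle and 100% = reference antibiotic; read after six days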
# Active calls of the source: *; ? = inconclusive; . = no result given.
SMILES,Sa RN4220 lethal,ugtP null kill,Mtb hypoxia rep,Mtb hypoxia rep growth,PrP 5UTR inh,Autofluor counter,BJeLR viability
Cc1cc(=O)oc2c(C)c(OCC(=O)NCc3ccccn3)ccc12,2.7,-7,-4,6,-17,5299,6
NS(=O)(=O)c1ccc(NC(=O)c2ccccc2C(=O)N2CCCCC2)cc1,0.9,0,1,7,-27,10539,-3
COc1ccc(-c2onc(C)c2-c2cnn(-c3ccccc3)c2)c(O)c1,6.4,1,1,7,-4,3378,-6
CCCn1c(O)c(N=NC(=O)CNC(=O)/C=C/c2ccc(OC)cc2)c2ccccc21,1.0,-1,4,-4,-1,4009,-6
CCn1c(SCc2ccc(OC)c(F)c2)nc2ccccc2c1=O,11,1,5,-2,-19,5963,-10
O=C(Nc1ccc(Br)cn1)c1cccc(S(=O)(=O)N2CCCC2)c1,7.1,9,9,8,-8,4094,.
CC1CN(S(=O)(=O)c2cccc(C(=O)OCC(=O)c3cccs3)c2)CC(C)O1 (configuration not stated),0.1,-1,-10,-4,-8,3275,15
CC(C)C(=O)NNC(=O)C1CC1(c1ccccc1)c1ccccc1 (configuration not stated),3.9,10,6,0,4,2932,-16
Cc1ccccc1C(=O)OCC(=O)N(C)c1ccccc1,7.3,8,-3,3,-21,4873,0
CCOc1cccc(C(=O)Nc2ccc(NC(=O)c3cc4ccccc4o3)c(OC)c2)c1,6.3,1,4,-4,-8,3835,10
CCOc1ccccc1N(C)C(=O)CCS(=O)(=O)c1ccc2c(c1)NC(=O)CO2,2.0,0,12,1,3,5758,-1
Cc1ccc2[nH]c(=O)c(CN(Cc3ccccc3)Cc3nnnn3C3CCCC3)cc2c1,3.7,-13,5,0,-19,12856,-1
CSc1nc2c(c(=O)[nH]c(=O)n2C)n1Cc1ccccc1Cl,1.3,6,1,6,-3,4640,-9
COC(=O)c1ccccc1NC(=O)Nc1cccs1,-8.9,9,7,5,-14,2428,1
CC(C)c1c(O)nc(SCCN(C)C)[nH]c1=O,5.9,-2,3,17,-25,?,-4
Cc1c(C(=O)OCc2nnc(-c3ccccc3)o2)oc2ccccc12,11,6,.,.,-16,3907,.
COc1ccc(CCNS(=O)(=O)c2cccc(S(=O)(=O)N3CCCC3)c2)cc1OC,2.6,-2,.,.,-22,2660,3
O=C(CCCSc1nc2ccccc2[nH]1)NCc1ccc(Cl)cc1,-3.5,1,6,6,-11,2534,-7
COC(=O)c1cccc(NC(=O)CSc2ncn[nH]2)c1,1.0,-2,.,.,-3,4762,.
CCN(CC)/C(=N\S(=O)(=O)c1ccccc1C)c1ccccc1,.,.,.,.,-28,5685,14
CN1CCN(CC(O)COc2ccccc2)CC1 (configuration not stated),.,.,.,.,-8,3987,1
O=C1OC(OC(=O)c2ccccc2Br)C(N2CCOCC2)=C1Cl (configuration not stated),.,.,.,.,-14,6695,11
Cn1cccc1Cc1nnc(SCC(=O)Nc2ccc3c(c2)OCO3)n1CCc1ccccc1,1.5,10,.,.,-23,5325,8
CC(=O)c1ccc(Sc2nnc(C)s2)c([N+](=O)[O-])c1,2.6,1,0,3,-31,2531,-12
O=[N+]([O-])/C(C(Cl)=C(Cl)Cl)=C(/NC1CC1)Sc1ccccc1,7.0,3,6,4,-10,2239,-1
COc1ccccc1NC(=O)C/C(N)=N/O,3.1,6,9,7,-20,3961,4
N#Cc1ccsc1NC(=O)COC(=O)c1ccc2ccccc2c1,2.7,-6,1,-3,-27,2496,7
O=C(Cn1nnc(-c2ccccc2Cl)n1)Nc1cccc(S(=O)(=O)N2CCCC2)c1,-2.5,-1,5,9,5,3648,.
CCn1c(SCc2cccc(C)c2)nnc1-c1ccc(C)cc1,11,-11,15,12,-27,10288,4
CC(C)C(NC(=O)c1ccccc1)C(=O)OCC(=O)NCCc1ccc(F)cc1 (configuration not stated),3.7,-2,13,10,.,.,.

# Whole records from above. Order of values: Sa RN4220 lethal | ugtP null kill | Mtb hypoxia rep | Mtb hypoxia rep growth | PrP 5UTR inh | Autofluor counter | BJeLR viability
# Entry for `O=[N+]([O-])/C(C(Cl)=C(Cl)Cl)=C(/NC1CC1)Sc1ccccc1` = 7.0 | 3 | 6 | 4 | -10 | 2239 | -1
# Entry for `O=C(CCCSc1nc2ccccc2[nH]1)NCc1ccc(Cl)cc1` = -3.5 | 1 | 6 | 6 | -11 | 2534 | -7
# Entry for `COc1ccccc1NC(=O)C/C(N)=N/O` = 3.1 | 6 | 9 | 7 | -20 | 3961 | 4
# Entry for `N#Cc1ccsc1NC(=O)COC(=O)c1ccc2ccccc2c1` = 2.7 | -6 | 1 | -3 | -27 | 2496 | 7
# Entry for `CCN(CC)/C(=N\S(=O)(=O)c1ccccc1C)c1ccccc1` = . | . | . | . | -28 | 5685 | 14

# (further entries)
SMILES,Sa RN4220 lethal,ugtP null kill,Mtb hypoxia rep,Mtb hypoxia rep growth,PrP 5UTR inh,Autofluor counter,BJeLR viability
COC(=O)Nc1ccc(S(=O)(=O)N(CCO)CCO)cc1,1.1,3,2,1,-12,22684*,5
CN1CCN(C(=O)/C(=C/c2ccc(N(C)C)cc2)NC(=O)c2ccccc2)CC1,-0.6,7,2,12,-12,4306,-1
Cc1ccc(S(=O)(=O)N(C)C)cc1NC(=O)Nc1c(-c2ccccc2)noc1C,1.7,1,1,1,.,4622,2
COc1ccc(CN2C(=O)c3cccnc3C2=O)cc1S(=O)(=O)N(C)Cc1ccco1,0.6,2,6,1,-16,6151,-1
O=C1/C(=C/c2ccc(Cl)cc2)NC(=S)N1Cc1cccnc1,5.6,8,-7,-4,0,5015,0
Cc1ccc(C(=O)Nc2nnc(-c3ccco3)o2)cc1,12,-4,-6,3,0,1956,6
O=C(CCCC(=O)N(CC(=O)NC1CCCCC1)Cc1ccccc1)Nc1ccccn1,-0.2,-2,.,.,4,4431,3
O=C(C=Cc1ccc2c(c1)OCO2)NC1(C(=O)Nc2ccc3c(c2)OCO3)CCCCC1,3.0,-6,3,2,.,.,.
Oc1ccc(-c2nc3ccc4ccccc4c3c3c2CCC3)cc1O,-3.6,98*,2,5,-43,2338,-5
CCOc1ccc(C(CC(=O)O)NC(=O)C(c2ccccc2)c2ccccc2)cc1OC (configuration not stated),2.0,6,3,-3,-32,5475,.
CC(=O)Nc1ccc(/C(C)=N/Nc2nc(Nc3cccc4ccccc34)nc(N3CCOCC3)n2)cc1,.,.,.,.,-11,2031,-1
O=C(Nc1nc(-c2ccccc2)cs1)C1c2ccccc2Oc2ccccc21,-6.2,-2,-1,-3,-23,3294,15
O=C(/C=C/c1ccc(S(=O)(=O)N2CCOCC2)cc1)NCc1ccc(Cl)cc1,0.8,1,3,12,-5,8050,-5
CCCCOc1ccc(-c2cc(C(F)(F)F)c(C#N)c(SCC(=O)O)n2)cc1,19,3,10,6,-24,8301,2
COC(=O)c1ccccc1NC(=O)Nc1nnc(N2CCC(C)CC2)s1,5.4,6,14,7,-13,5963,9
O=C(Nc1ccccc1F)C1CCCN(S(=O)(=O)c2ccc(-n3cnnn3)cc2)C1 (configuration not stated),2.9,9,-6,4,-9,3515,6
COC(=O)c1cccc(NCN2C(=O)c3ccccc3C2=O)c1,0.6,0,4,2,-16,9254,-9
CC(=O)SCC(=O)N=c1sc2cc(F)ccc2n1C,7.6,0,.,.,-36,2117,1
C=CCc1cc(OC)ccc1OCCN(C)Cc1ccccc1,16,-68,5,8,-9,4360,4
CCc1cc2c(NCCO)ncnc2s1,2.8,2,6,5,-6,3929,-10
CCN1CCN(C2=C(NS(=O)(=O)c3ccccc3)C(=O)c3ccccc3C2=O)CC1,16,11,-8,-1,10,3918,-13
CCOC(=O)CC1CCCCN1Cc1nc(-c2ccc(F)c(OC)c2)oc1C (configuration not stated),-0.6,6,6,-1,-18,3828,-3
COc1cccc(C(=O)NC(C)C(c2cccs2)N2CCN(C)CC2)c1 (configuration not stated),0.1,8,5,10,.,11474,-1
COC(=O)c1cc(C(=O)OCC(=O)N(C)c2ccccc2)cc([N+](=O)[O-])c1,4.3,9,-5,1,-23,3861,-4
COCC(=O)NC1CC2CCCC(C1)N2Cc1ccccc1 (configuration not stated),2.5,3,3,1,1,8767,-5
CCN(CC)c1ccc(NC(=O)C2CCCN(S(=O)(=O)c3cnc[nH]3)C2)c(C)c1 (configuration not stated),2.3,8,.,.,-13,5501,-7
O=C(Cc1c(Cl)cccc1Cl)OCc1ccccn1,7.0,-1,-3,-2,-28,3602,-5
CC(C)(C)OC(=O)N1Cc2cc3ccccc3nc2C1CO (configuration not stated),3.8,7,-1,-2,-12,3246,-4
Cc1ccc(O)c(C=Nc2cc(C)ccc2O)c1,5.4,11,12,10,-22,10441,-15
CCCCSc1nnc(-c2ccc(C)cc2)n1C,5.5,-7,1,4,-87,3955,1
CC1(NC(=O)CN2CCN(c3cnn(-c4ccccc4)c(=O)c3Cl)CC2)CCS(=O)(=O)C1 (configuration not stated),2.9,5,3,1,.,5838,.
O=C(O)Cn1cnc2c(oc3ccccc32)c1=O,6.3,10,-8,3,-16,4138,3
O=C(CCc1ccccc1)c1c(O)cc(O)cc1O,1.8,-9,.,.,-24,5196,6
O=C(NCCc1ccccc1Cl)C1CCC(=O)N(Cc2ccc(Cl)cc2)C1 (configuration not stated),-8.7,5,5,8,-7,5551,-4
Cc1ccc(-c2nnc(N3CCCCC3)c3ccccc23)cc1S(=O)(=O)N1CCN(C)CC1,-3.6,6,7,13,-7,2866,-11
COc1ccc(C2CC(=O)c3cnc(N4CCN(Cc5ccccc5)CC4)nc3C2)cc1 (configuration not stated),0.4,20,.,.,-20,2775,-1
O=C(Cn1c(NCCCO)nc2ccccc21)c1ccc(Br)cc1,0.4,14,.,.,1,2252,-21
Cc1ccc(C(=O)N2CCN(c3ccc([N+](=O)[O-])c(NCc4ccco4)c3)CC2)cc1,-11,-14,.,.,-9,2602,-2
O=C(O)Cn1ccc2ccccc21,0.0,-2,-1,9,-5,3352,-14
CC(C(=O)Nc1ccccc1)N1C(=O)c2ccccc2C1=O (configuration not stated),10,9,17,4,-3,3179,.
COc1ccc(C(=O)Cn2cnc3ccc(Cl)cc3c2=O)cc1F,0.0,-2,12,3,-9,3965,5
CCNC(=O)c1ccccc1SCc1ccccc1,0.4,11,11,19,-73,2592,-7
Cc1cccc(C)c1NS(=O)(=O)c1ccc2c(c1)NC(=O)CO2,20,-3,10,5,-4,2415,-1
COc1ccc(Br)cc1/C=C/C(=O)c1ccc(NC(C)=O)cc1,-0.4,-22,6,4,-4,1971,.
CC(=O)N1CCC(C(=O)Nc2ccc(S(=O)(=O)N3CCC(C)CC3)cc2)CC1,0.7,5,12,1,-24,5504,0
CC(C)CC(=O)NN1CCCCC1,1.9,2,.,.,-11,2373,4
COc1ccc(-n2c(SCC(=O)Nc3ccc(Br)cc3)nc(O)cc2=O)cc1,5.7,11,10,2,-32,4600,6
O=C(O)C1CCCN1S(=O)(=O)c1ccc(Cl)c(Cl)c1 (configuration not stated),4.7,8,-2,-1,-24,6648,1
N#CC1=C(c2ccccc2)/C(=C/c2ccccc2)OC1=O,.,.,.,.,-14,2309,11
Cc1ccc(S(=O)(=O)N2CCC(C(=O)OCC(=O)N3CC(C)CC(C)C3)CC2)cc1C (configuration not stated),-1.0,2,3,-7,-19,4517,-14
COc1cccc(NC(=O)CSc2nnc(Cc3cccn3C)n2-c2ccc(F)cc2)c1,0.5,3,.,.,2,5810,3
COc1cc(OC)cc(C(=O)N[C@H](C(=O)Nc2ccc(NC(C)=O)cc2)C(C)C)c1,0.8,2,0,-2,-10,4277,.
COc1cccc2cc(C(=O)n3ccc(C)n3)c(=O)oc12,1.9,5,.,.,-25,2426,0
Cc1c(Cl)c(C(=O)Nc2nc3ccccc3n2CCN2CCCCC2)nn1C,3.2,8,8,2,.,.,15
C(=NOCc1ccccc1)c1cccnc1,4.0,1,11,6,-50,4147,.
Cc1cc(C)n(-c2ccc(Oc3ccccc3)c(S(=O)(=O)O)c2)n1,6.0,6,6,5,-22,2622,5
C=CCn1c2ccccc2n2nc(C)c(=O)nc12,1.0,10,.,.,10,3542,-3
CCOc1ccccc1NC(=O)NNS(=O)(=O)c1cc(C)ccc1C,2.5,-5,4,-2,-12,6373,12
COC(=O)Cc1c(O)ccn(CCc2c[nH]c3ccc(OC)cc23)c1=O,5.2,4,4,-5,-45,3831,-11
